Ecoli rRNA inh – reduced GFP signal of wild-type E. coli, primary screen, bacterial rRNA inhibitor project, GFP/RFP fluorescence, OD600, single point. E. coli WT GFP vs humanized-ribosome RFP mutants, 24 h; active compounds read low; DMSO median 0, no signal -100. GFP signal change (wild-type ribosome), % (concentration not given with the values). hit rate 1.6% among 350,000;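 active = significant combined selectivity score with lowered wild-type GFP, culture density cut under 30%, mutant RFP and density less affected; inactive = any of these conditions unmet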; also: one replicate is shown; some compounds called inactive have numbers as strong as hits
Ecoli rRNA inh OD600 – further read-out of Ecoli rRNA inh, marked with its call; OD600 change, %; measured here: OD600 growth;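 optical density of the mix in the first replicate; 0 = DMSO median and -100 = no signal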
Ecoli rRNA inh RFP – also measured in Ecoli rRNA inh; calls as there; RFP signal change, %; measured here: RFP humanized mutant strains;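 first replicate; 0 = DMSO median and -100 = no signal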
Starred values were filed as active, the others as inactive; & = joins results of further samples. This is a subset; count on the stated rates, not on these rows.

SMILES	Ecoli rRNA inh	Ecoli rRNA inh OD600	Ecoli rRNA inh RFP
COCC(=O)N1CC2(C1)[C@H](c1ccccc1)[C@H](CO)N2C(=O)c1cccnc1	3	5	-0.3
C[C@H]1CN([C@@H](C)CO)C(=O)Cc2cc(NC(=O)Nc3ccccc3)ccc2O[C@H]1CN(C)Cc1ccncc1	-2	-9	-0.3
N#Cc1cccc(-c2ccc(C3[C@@H]4CN(Cc5ccccc5)C[C@H]3N4)cc2)c1 (some centres not stated)	-14&-58	-30&-76	4.1&-16
Cc1noc(C)c1NC(=O)N[C@@H]1C=C[C@@H](CC(=O)NCCCN(C)C)O[C@@H]1CO	2	3	-1.4
Cc1noc(C)c1S(=O)(=O)N(C)C[C@@H]1Oc2ccc(NC(=O)Cc3ccccc3)cc2CC(=O)N([C@@H](C)CO)C[C@H]1C	-2	-6	-3.7
COc1ccc(NC(=O)N(C)C[C@H]2Oc3ccc(NC(=O)Cc4ccccc4)cc3CC(=O)N([C@@H](C)CO)C[C@H]2C)cc1	-1	3	-0.5
C[C@@H]1CN([C@H](C)CO)C(=O)c2cc(NC(=O)c3ccccc3)ccc2O[C@@H](C)CCCCO[C@H]1CN(C)Cc1ccccc1	0	4	-1.3
C[C@@H]1CCCCO[C@@H](CN(C)CC2CC2)[C@H](C)CN([C@@H](C)CO)C(=O)c2cc(NC(=O)Nc3ccc(C(F)(F)F)cc3)ccc2O1	-9	-43	36
Cc1ccc(S(=O)(=O)N(C)C[C@@H]2Oc3ccc(NS(=O)(=O)c4cn(C)cn4)cc3C(=O)N([C@H](C)CO)C[C@H]2C)cc1	1	0	-0.9
C[C@@H]1CCCCO[C@@H](CN(C)Cc2ccc(C(F)(F)F)cc2)[C@H](C)CN([C@@H](C)CO)C(=O)c2cc(NS(C)(=O)=O)ccc2O1	-1	-5	2.0
Cc1ccc(-c2cnc3c(c2)C(=O)N([C@@H](C)CO)C[C@H](C)[C@H](CN(C)S(C)(=O)=O)O3)cc1	1	4	-2.2
O=C(NC[C@H]1[C@@H](c2ccccc2)[C@H](CO)N1CC1CCCC1)c1cccnc1	1	0	0.3
CO[C@H]1CN(C)C(=O)c2cc(NC(C)=O)ccc2OC[C@H](C)N(CC2CCCCC2)C[C@@H]1C	3	-7	1.3
CN1C(=O)c2cc(NC(=O)Nc3ccccc3F)ccc2OC[C@H]2O[C@@H](CC(=O)O)CC[C@@H]21	2	0	0.0
C[C@H]1CN([C@@H](C)CO)S(=O)(=O)c2ccc(-c3ccccc3)cc2O[C@@H]1CN(C)Cc1ccccc1	-6	-12	-2.4
COCC(=O)Nc1ccc2c(c1)C(=O)N(C)[C@@H]1CC[C@@H](CC(=O)NCc3cccc(F)c3)O[C@@H]1CO2	5	11	-1.1
C[C@@H]1CN([C@@H](C)CO)C(=O)Cc2cc(N(C)C)ccc2O[C@H]1CN(C)S(=O)(=O)c1cccs1	-2	-1	-3.1
CC(=O)N(C)C[C@@H]1Oc2cc(C#CC3CC3)ccc2S(=O)(=O)N([C@@H](C)CO)C[C@@H]1C	0	1	-5.0
Cc1noc(C)c1S(=O)(=O)N(C)C[C@@H]1OCCCC[C@H](C)Oc2ccc(NS(=O)(=O)c3ccc(F)cc3)cc2C(=O)N([C@@H](C)CO)C[C@H]1C	0	5	-0.4
CO[C@H]1CN(C)C(=O)c2cc(NC(=O)Nc3cccc(Cl)c3)ccc2OC[C@@H](C)N(C(=O)Nc2c(C)noc2C)C[C@H]1C	-7	-15	2.9
N#Cc1cccc(-c2ccc(C3[C@@H]4CN(C(=O)Nc5ccc(C(F)(F)F)cc5)C[C@H]3N4)cc2)c1 (some centres not stated)	-56&-58	-78&-80	-18&-15
CC(=O)N1CC(=O)N2[C@H](C1)[C@H](c1ccc(-c3ccc(C#N)cc3)cc1)[C@@H]2CO	3	1	-5.7
Cc1ccc(S(=O)(=O)N(C)C[C@@H]2Oc3ccc(NC(=O)Nc4cccc5ccccc45)cc3C(=O)N([C@@H](C)CO)C[C@H]2C)cc1	-2	-4	-1.7
C[C@H](CO)N1C[C@H](C)[C@H](CN(C)CC2CCOCC2)Oc2cc(Br)ccc2S1(=O)=O	7	12	-2.2
Cc1noc(C)c1NC(=O)Nc1ccc2c(c1)CC(=O)N([C@H](C)CO)C[C@@H](C)[C@@H](CN(C)Cc1ccc3c(c1)OCO3)O2	0	2	0.1

Part of the list above in order of number of heavy atoms, low to high:
SMILES	Ecoli rRNA inh	Ecoli rRNA inh OD600	Ecoli rRNA inh RFP
CC(=O)N1CC(=O)N2[C@H](C1)[C@H](c1ccc(-c3ccc(C#N)cc3)cc1)[C@@H]2CO	3	1	-5.7
Cc1noc(C)c1NC(=O)N[C@@H]1C=C[C@@H](CC(=O)NCCCN(C)C)O[C@@H]1CO	2	3	-1.4
C[C@H](CO)N1C[C@H](C)[C@H](CN(C)CC2CCOCC2)Oc2cc(Br)ccc2S1(=O)=O	7	12	-2.2
Cc1ccc(-c2cnc3c(c2)C(=O)N([C@@H](C)CO)C[C@H](C)[C@H](CN(C)S(C)(=O)=O)O3)cc1	1	4	-2.2
CO[C@H]1CN(C)C(=O)c2cc(NC(C)=O)ccc2OC[C@H](C)N(CC2CCCCC2)C[C@@H]1C	3	-7	1.3
C[C@H]1CN([C@@H](C)CO)S(=O)(=O)c2ccc(-c3ccccc3)cc2O[C@@H]1CN(C)Cc1ccccc1	-6	-12	-2.4
COCC(=O)Nc1ccc2c(c1)C(=O)N(C)[C@@H]1CC[C@@H](CC(=O)NCc3cccc(F)c3)O[C@@H]1CO2	5	11	-1.1
C[C@H]1CN([C@@H](C)CO)C(=O)Cc2cc(NC(=O)Nc3ccccc3)ccc2O[C@H]1CN(C)Cc1ccncc1	-2	-9	-0.3
Cc1ccc(S(=O)(=O)N(C)C[C@@H]2Oc3ccc(NS(=O)(=O)c4cn(C)cn4)cc3C(=O)N([C@H](C)CO)C[C@H]2C)cc1	1	0	-0.9
Cc1noc(C)c1NC(=O)Nc1ccc2c(c1)CC(=O)N([C@H](C)CO)C[C@@H](C)[C@@H](CN(C)Cc1ccc3c(c1)OCO3)O2	0	2	0.1
C[C@@H]1CCCCO[C@@H](CN(C)Cc2ccc(C(F)(F)F)cc2)[C@H](C)CN([C@@H](C)CO)C(=O)c2cc(NS(C)(=O)=O)ccc2O1	-1	-5	2.0
Cc1ccc(S(=O)(=O)N(C)C[C@@H]2Oc3ccc(NC(=O)Nc4cccc5ccccc45)cc3C(=O)N([C@@H](C)CO)C[C@H]2C)cc1	-2	-4	-1.7
C[C@@H]1CCCCO[C@@H](CN(C)CC2CC2)[C@H](C)CN([C@@H](C)CO)C(=O)c2cc(NC(=O)Nc3ccc(C(F)(F)F)cc3)ccc2O1	-9	-43	36
Cc1noc(C)c1S(=O)(=O)N(C)C[C@@H]1OCCCC[C@H](C)Oc2ccc(NS(=O)(=O)c3ccc(F)cc3)cc2C(=O)N([C@@H](C)CO)C[C@H]1C	0	5	-0.4

The listing continues.
SMILES	Ecoli rRNA inh	Ecoli rRNA inh OD600	Ecoli rRNA inh RFP
O=C(C1CCOCC1)N1CC(=O)N2[C@H](CO)[C@H](c3ccc(C#Cc4cccc(F)c4)cc3)[C@H]2C1	-1	13	-6.1
CCCC#Cc1ccc([C@@H]2[C@@H](CO)N3CCCCN(S(=O)(=O)c4ccccc4F)C[C@H]23)cc1	-51	-57	-2.8
COCC(=O)Nc1ccc2c(c1)C(=O)N(C)[C@@H]1CC[C@H](CC(=O)OC)O[C@@H]1CO2	-2	-13	0.9
C[C@@H]1CN([C@@H](C)CO)S(=O)(=O)c2ccc(-c3ccncc3)cc2O[C@H]1CN(C)C(=O)C1CCCCC1	-3	-4	-2.5
O=C(N[C@H](Cc1ccccc1)C(=O)NCc1ccc(OC(F)(F)F)cc1)[C@H]1O[C@@H](n2ccc(=O)[nH]c2=O)[C@H](O)[C@@H]1O	23	6	2.6
CN(C)CC#Cc1ccc([C@H]2[C@@H](CO)N3C(=O)CN(C(=O)c4cccc(F)c4)C[C@@H]23)cc1	-2	11	-2.0
CCCNC(=O)C[C@@H]1CC[C@@H]2[C@@H](COc3ccc(NC(=O)c4ccc(OC)cc4)cc3C(=O)N2C)O1	4	2	1.9
O=C(N[C@@H](Cc1cccnc1)C(=O)N1CCC[C@H]1C(=O)NC1CCCC1)C1CC1	16	21	1.8
COC(=O)c1ccccc1	2	5	0.6
C[C@H](CO)N1C[C@H](C)[C@@H](CN(C)Cc2ccc3c(c2)OCO3)OCCCC[C@H](C)Oc2ccc(NS(=O)(=O)c3cccs3)cc2C1=O	0	-9	2.0
C[C@@H]1CCCCO[C@H](CN(C)C(=O)CCC(F)(F)F)[C@H](C)CN([C@@H](C)CO)C(=O)c2cc(NC(=O)c3ccncc3)ccc2O1	-3	10	-0.6
CNC(=O)C[C@H]1CC[C@H]2[C@@H](COc3ccc(NC(=O)CN(C)C)cc3C(=O)N2C)O1	2	2	1.4
COCC(=O)Nc1ccc2c(c1)[C@@H]1C[C@@H](CC(=O)OC)O[C@@H](CO)[C@@H]1O2	-1	0	-3.3
C[C@@H]1CCCCO[C@H](CN(C)CC2CCCCC2)[C@H](C)CN([C@H](C)CO)C(=O)c2cc(NC(=O)NC3CCCCC3)ccc2O1	-7	-38	35
C[C@@H]1CCCCO[C@H](CN(C)C(=O)Nc2cccc3ccccc23)[C@@H](C)CN([C@H](C)CO)C(=O)c2cc(NC(=O)Nc3ccccc3)ccc2O1	2	1	1.0
Cc1cccc(C)c1N1C(=O)c2ccccc2NC(=O)C1C(=O)NCc1ccco1 (configuration not stated)	8	6	0.6
C[C@H]1CC=CC[C@H](c2ccc(F)cc2)NC(=O)[C@H](Cc2ccccc2)N(C)C(=O)c2ccccc2O1 (mixture of isomers)	-3	-6	4.0
CC(C)NC(=O)C1(C)CSCC(=O)N1CC(F)(F)F (configuration not stated)	11	20	-3.7
COc1cccc(NC(=O)N2C[C@@H](O)COC[C@@H]3O[C@@H](CC(=O)NCc4ccccc4F)CC[C@H]32)c1	1	12	1.8
COc1cccc(-c2ccc3c(c2)[C@@H]2[C@@H](CCN2C(=O)c2ccccn2)[C@@H](CO)N3C)c1	-1	-14	1.8
O=C(C[C@@H]1CC[C@@H]2[C@H](COC[C@@H](O)CN2C(=O)c2ccccc2)O1)NCCCN1CCOCC1	6	1	15
COc1ccc(NC(=O)Nc2ccc3c(c2)CC(=O)N([C@H](C)CO)C[C@H](C)[C@@H](CN(C)C(=O)Nc2cccc4ccccc24)O3)cc1	0	1	0.6
CC(C)NC(=O)N(C)C[C@H]1Oc2ccc(NS(C)(=O)=O)cc2CC(=O)N(C)C[C@H]1C	0	4	2.1
C[C@@H]1CN([C@H](C)CO)C(=O)c2ccccc2-c2ccccc2CO[C@H]1CN(C)C(=O)Nc1cccc(Cl)c1Cl	0	7	0.2
Cc1noc(C)c1NC(=O)Nc1ccc2c(c1)CC(=O)N([C@@H](C)CO)C[C@@H](C)[C@@H](CN(C)S(C)(=O)=O)O2	3	-1	-3.2

Next part.
SMILES	Ecoli rRNA inh	Ecoli rRNA inh OD600	Ecoli rRNA inh RFP
CC(C)NC(=O)N1[C@H](CO)[C@@H]2c3ccccc3N(C(=O)c3ccc(F)cc3)C[C@@H]21	5	7	0.2
C[C@@H]1CCCCO[C@@H](CN(C)Cc2ccc(C(=O)Nc3ccccc3N)cc2)[C@@H](C)CN([C@H](C)CO)C(=O)c2cc(N(C)C)ccc2O1	1	-2	-0.4
CC(=O)N1[C@@H]2CN(S(=O)(=O)c3cccc(C)c3)c3ccccc3[C@@H]2[C@@H]1CO	2	3	-1.1
C[C@@H]1CN([C@H](C)CO)C(=O)Cc2cc(NC(=O)Nc3ccc4c(c3)OCO4)ccc2O[C@H]1CN(C)C(=O)Nc1ccccc1	7	14	0.3
C[C@H](CO)N1C[C@H](C)[C@@H](CN(C)C(=O)[C@H]2CCCN2C)OCc2ccccc2-c2c(n(C)c3ccccc23)C1=O	1	3	-3.8
COCC(=O)Nc1ccc2c(c1)OC[C@@H](C)N(Cc1ccccc1OC)C[C@@H](C)[C@@H](OC)CN(C)C2=O	5	0	0.3
CCC(=O)Nc1ccc2c(c1)OC[C@H](C)N(CC1CCCCC1)C[C@H](C)[C@H](OC)CN(C)C2=O	2	2	-1.5
CO[C@@H]1CN(C)C(=O)c2ccc(NC(=O)Nc3ccccc3)cc2OC[C@@H](C)N(C(=O)CN(C)C)C[C@@H]1C	0	5	-0.6
COc1ccc(S(=O)(=O)Nc2ccc3c(c2)C(=O)N([C@@H](C)CO)C[C@@H](C)[C@@H](CN(C)CC2CCCCC2)OCCCC[C@H](C)O3)cc1	8	-5	-1.7
C[C@H]1CN([C@@H](C)CO)C(=O)c2cc(NC(=O)Nc3ccc(F)cc3)ccc2O[C@@H]1CN(C)C(=O)Nc1ccc(C(F)(F)F)cc1	-1	-7	0.7
COc1cccc(C(=O)N[C@@H](Cc2cccnc2)C(=O)N2CCC[C@H]2C(=O)NCc2ccccc2)c1	-13	3	2.7
Cc1cccc(C)c1NC(=O)C1(C)CSCC(=O)N1CC(C)C (configuration not stated)	-1	4	-3.4
CO[C@@H]1CN(C)C(=O)c2cc(NC(C)=O)ccc2OC[C@H](C)N(Cc2cccnc2)C[C@H]1C	1	2	-4.8
COc1cccc(C(C(=O)NC2CCCC2)N2CCN(c3cc(C)nc4ccccc34)CC2)c1OC (configuration not stated)	6	-5	0.3
C[C@H]1CN([C@@H](C)CO)C(=O)c2cccc(NS(=O)(=O)c3ccc(F)cc3)c2O[C@H]1CN(C)Cc1ccc(Oc2ccccc2)cc1	2	-7	-1.7
CC(C)NC(=O)N(C)C[C@@H]1OCCCC[C@H](C)Oc2ccc(NC(=O)C3CCCCC3)cc2C(=O)N([C@H](C)CO)C[C@H]1C	7	10	-1.9
COC(=O)[C@]12CCCCC=C1N(CCc1ccc(OC)c(OC)c1)C(=O)[C@H](CC(=O)NCc1ccc(OC)c(OC)c1)C2	-10	-5	5.6
COc1ccc(NC(=O)N(C)C[C@@H]2OCCCC[C@@H](C)Oc3ccc(NC(=O)c4ccncc4)cc3C(=O)N([C@H](C)CO)C[C@H]2C)cc1	-1	-5	0.7
